Bioassay records (PubChem)
Ecoli rRNA inh: selective bacterial rRNA inhibition in E. coli | AID 720706 | E. coli WT GFP vs humanized-ribosome RFP mutants, fluorescence, 24 h; active compounds read low; DMSO median 0, no signal -100 | hit rate 1.6% among 350,000 | GFP signal change (wild-type ribosome), % (no concentration beside the values);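 active means significant combined selectivity score with lowered wild-type GFP, culture density cut under 30%, mutant RFP and density less affected; inactive means any of these conditions unmet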; further: one replicate is shown; some compounds called inactive have numbers as strong as hits
Ecoli growth: inhibitors of Escherichia coli growth. hit rate 0.21% among 330,000. AID 1053175. OD600 absorbance (no concentration beside the values). OD600, 23 h; active compounds read low;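 active means OD600 absorbance below the run mean of sample wells minus 3.6 SD, in any replicate, cut at about 0.56 in these data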;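 further: stock transfer was 300 nL into about 60 µL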
HNF4A DNA FP: change in binding of human HNF4 alpha to DNA; activity change, % at 10 µM; P41235; HNF4a-FITC DNA binding, fluorescence polarization, 1 h; hit rate 0.3% among 360,000; in the data active means activity change above about 30%, passing the limit was not always enough;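 further: controls were the assay level and a saturating level of protein; the project sought stronger binding though the title names inhibitors; some compounds called inactive have numbers as strong as hits; positive values seem to mean higher polarization but the record does not say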
Target sequence (P41235 whole entry, looked up): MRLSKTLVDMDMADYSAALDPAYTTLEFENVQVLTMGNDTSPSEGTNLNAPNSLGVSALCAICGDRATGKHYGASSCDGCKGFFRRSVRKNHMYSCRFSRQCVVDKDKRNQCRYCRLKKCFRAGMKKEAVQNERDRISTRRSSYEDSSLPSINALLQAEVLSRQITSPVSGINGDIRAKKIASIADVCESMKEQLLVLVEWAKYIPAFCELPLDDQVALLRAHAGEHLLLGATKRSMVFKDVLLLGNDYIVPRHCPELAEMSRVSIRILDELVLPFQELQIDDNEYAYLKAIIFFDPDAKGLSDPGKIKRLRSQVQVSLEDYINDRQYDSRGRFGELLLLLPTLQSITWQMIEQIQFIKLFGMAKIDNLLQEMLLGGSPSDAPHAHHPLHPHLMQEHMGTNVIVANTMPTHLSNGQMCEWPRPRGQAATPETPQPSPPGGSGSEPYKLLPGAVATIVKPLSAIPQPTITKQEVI
Beta2AR agonist: activates human beta-2 adrenergic receptor causing internalization; response, % (concentration not given with the values); hit rate 0.43% among 340,000; P07550; Am2.2-beta2AR cells, FAP receptor internalization, flow cytometry; reference of the scale not given here; AID 504454;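 active means response above a set limit, near 3 SD of response in nonfluorescent compounds, cut at about 42% in these data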;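 further: stock transfer was 100 nL into about 11 µL; a reference agonist was the positive control; negative values mostly stem from fluorescent compounds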
FGF22 binding: shifts melting point of recombinant human FGF22. Q9HCT0. recombinant FGF22 thermal shift, SYPRO orange fluorescence; percent of sucrose octasulfate shift, DMSO zero. calls only at 9.99 µM. hit rate 1.5% among 340,000. AID 651658;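 active means melting point raised past a set limit in the mean and every replicate; three in four hits are not shown here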
Target sequence (Q9HCT0 whole entry, looked up): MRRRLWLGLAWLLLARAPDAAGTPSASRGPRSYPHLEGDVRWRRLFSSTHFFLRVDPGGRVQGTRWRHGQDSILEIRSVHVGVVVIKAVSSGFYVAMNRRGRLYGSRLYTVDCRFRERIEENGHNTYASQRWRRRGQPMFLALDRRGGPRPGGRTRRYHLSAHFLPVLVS
UCH37 DUB inh: human UCH37 deubiquitinating enzyme inhibition; Q9Y5K5; purified proteasome/UCH37, Ub-AMC cleavage fluorescence; inhibition, % (concentration not given with the values); hit rate 0.33% among 330,000; AID 588478;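 active means mean of two replicates above 20%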;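 further: 0% = compound-free wells with enzyme and 100% = wells lacking proteasome; stock transfer was 100 nL into about 20 µL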
Target sequence (Q9Y5K5 whole entry, looked up): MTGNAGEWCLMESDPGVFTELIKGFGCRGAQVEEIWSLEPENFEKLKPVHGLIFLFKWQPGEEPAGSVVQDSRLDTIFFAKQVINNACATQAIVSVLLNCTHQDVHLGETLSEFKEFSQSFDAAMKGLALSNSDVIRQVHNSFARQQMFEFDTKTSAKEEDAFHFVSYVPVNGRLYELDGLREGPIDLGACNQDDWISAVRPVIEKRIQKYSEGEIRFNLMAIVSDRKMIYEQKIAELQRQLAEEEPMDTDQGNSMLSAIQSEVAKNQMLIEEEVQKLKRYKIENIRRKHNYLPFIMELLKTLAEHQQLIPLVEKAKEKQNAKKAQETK
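Material: Human UCH37 enzyme supplied as purified proteasome complex | Schedule: 30 min compound-proteasome preincubation then 25 min substrate reaction, room temperature | Detection: AMC fluorescence from Ub-AMC cleavage, excitation 355 nm, emission 460 nm | Benchmarks: Wells without proteasome as full block, compound-free enzyme plus substrate as uninhibited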
ALR H2O2 inh: human ALR oxidase inhibition via reduced H2O2; P55789; purified ALR, DTT oxidation, H2O2 HRP-luminol luminescence; inhibition, % (concentration not given with the values); hit rate 3.8% among 290,000; AID 485317;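 active means mean and each replicate at 75% or more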;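 further: stock transfer was 7.5 nL into about 7.5 µL; 0% = neutral wells and 100% = wells with inactivated enzyme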
Ecoli rRNA inh OD600: recorded beside Ecoli rRNA inh, whose call it bears; OD600 change, %; measured here: OD600 growth;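 optical density of the mix in the first replicate; 0 = DMSO median and -100 = no signal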
Ecoli rRNA inh RFP: second read-out of Ecoli rRNA inh, no call of its own (marks repeat the call); RFP signal change, %; measured here: RFP humanized mutant strains;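 first replicate; 0 = DMSO median and -100 = no signal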
An asterisk follows results filed as active; i = inactive; . = no result given; & = joins results of further samples.

Values in the order: Ecoli rRNA inh, Ecoli rRNA inh OD600, Ecoli rRNA inh RFP, Ecoli growth, HNF4A DNA FP, Beta2AR agonist, FGF22 binding, UCH37 DUB inh, ALR H2O2 inh
> CCOc1ccc(/C=N/NC(=O)c2cc3c(OC)cccc3[nH]2)cc1
→ -1, -2, 2.8, ., -2.8, -3, i, ., -2
> CC(C)(C)OC(=O)C[C@@H]1C/C=C\C[C@@H](CC(=O)N[C@@H](CO)Cc2ccccc2)C(=O)N2CCC[C@H]2COC1=O
→ -2, 9, 0.9, ., 2.8, 4, i, 1.7, -9
> COc1ccc2c(c1)oc(=O)c1cc(OC)ccc12
→ -2, 2, 1.5, 0.69, 1.4, 1, i, -177, 3
> O=C(CNC(=S)N(Cc1ccccc1)Cc1cccnc1)NCc1ccccc1
→ -21, -6, 2.6, 0.67, -1.5, -1, i, 0.1, 0
> N#CC1=C(N)N=C(SCc2ccccc2)C(C(N)=O)C12CCCCC2 (stereo unspecified)
→ ., ., ., 0.74, 2.3, -2, ., 9.0, -8
> Cc1ccc(S(=O)(=O)NCc2ccco2)cc1C(N)=O
→ 9, 7, 1.0, 0.69, 0.3, 3, i, 4.0, -8
> CCn1c(=O)cc(SCC(=O)NCCCN2CCN(c3ccccc3F)CC2)c2ccccc21
→ -14, -23, 28, 0.64, -0.2, 6, i, 2.9, 2
> CC(=O)C[C@H](O)CC(=O)[C@H]1OC(=O)[C@@H](C)CCCCc2ccccc21
→ -6, -5, -2.5, 0.72, -2.0, -2, i, 0.4, .
> COc1ccc(C)cc1NC(=O)NNC(=O)C1CCC(C(C)(C)C)CC1 (stereo unspecified)
→ -17*, -3.4*, 2.3*, 0.66, -0.1, -9, i, -0.7, -12
> Cc1c(/C=C2\SC(=Nc3cccc(C(=O)O)c3)NC2=O)c2ccccc2n1C
→ -33, -29, -11, 0.72, 12, 3, i, 9.1, .

(continued)
Values in the order: Ecoli rRNA inh, Ecoli rRNA inh OD600, Ecoli rRNA inh RFP, Ecoli growth, HNF4A DNA FP, Beta2AR agonist, FGF22 binding, UCH37 DUB inh, ALR H2O2 inh
> CCOC(=O)CNS(=O)(=O)c1ccc(C)cc1
→ 10, 4, 11, 0.7, -2.5, 4, i, 1.9, -1
> CCN(CC)Cc1c(C(=O)N/N=C(\C)c2ccncc2)nnn1-c1nonc1N
→ 3, 8, -2.1, ., -0.1, 9, i, ., -5
> C[C@@H]1CN([C@@H](C)CO)C(=O)c2cc(Br)cnc2O[C@H]1CN(C)C(=O)c1ccccc1F
→ 6&-4, 9&-4, 2.5&-0.7, ., -2.2, ., i, ., .
> S=c1[nH]nc(-c2cc(-c3ccccc3)n[nH]2)n1/N=C/c1ccccc1
→ -15*, 2.6*, 2.9*, ., -1.8, -2, i, ., 43
> CCC(c1nnnn1C1CCCC1)N1CCC(C(N)=O)CC1 (stereo unspecified)
→ 36, 20, 1.9, 0.73, 0.4, -2, i, 2.9, 9
> Cc1onc(-c2ccccc2Cl)c1C(=O)O/N=C(\N)c1ccccc1
→ -4, -5, 4.3, 0.74, 5.7, -6, i, 2.4, 0
> COc1ccccc1NC(=O)C(C)OC(=O)C1CC(=O)N(Cc2ccco2)C1 (stereo unspecified)
→ 11, 11, -1.6, ., -2.0, ., i, ., .
> CC(C)CN(CC(C)C)C(=S)NC1CCCCC1
→ 7, 0, -12, 0.71, 3.4, 3, i, -11, -3
> S=c1[nH]nc(-c2ccc3ccccc3n2)n1-c1ccccc1
→ 2, 3, 6.7, 0.71, -2.0, 6, i, 9.2, 3
> CC(C(=O)Nc1nc2ccccc2s1)n1cc([N+](=O)[O-])cn1 (stereo unspecified)
→ -18*, -7.1*, 5.8*, 0.71, 0.1, -6, i, 0.9, -6

Next part.
Values in the order: Ecoli rRNA inh, Ecoli rRNA inh OD600, Ecoli rRNA inh RFP, Ecoli growth, HNF4A DNA FP, Beta2AR agonist, FGF22 binding, UCH37 DUB inh, ALR H2O2 inh
> Cc1nn(CCOc2cccc(Cl)c2)c(C)c1[N+](=O)[O-]
→ 3, -5, -1.7, 0.62, -1.5, 2, i, 0.2, -6
> COc1cc(OC)cc(N(C(=O)c2snc(C(N)=O)c2N)C(C(=O)NCC2CCCO2)c2ccc(C)o2)c1 (stereo unspecified)
→ -1, 0, 1.5, ., 1.6, 4, i, ., -1
> COC(=O)c1ccc(CC(=O)c2ccc(O)cc2O)o1
→ ., ., ., 0.73, 6.0, 7, ., 2.1, -4
> O=C(NCc1ccco1)c1nnc(Cc2ccc(F)cc2)o1
→ 3, 10, -0.8, 0.69, 0.6, 10, i, 5.1, -1
> CCc1sc(C(=O)Nc2cccc(-n3cnnn3)c2)cc1C
→ -4, 13, -1.3, 0.67, -3.5, 2, i, -0.7, 0
> Cc1cccc(Oc2coc3cc(O)ccc3c2=O)c1
→ -12, -11, 3.8, 0.66, -3.0, -1, i, -196, 0
> O=C(NCc1ccccn1)c1cc(S(=O)(=O)N2CCN(c3ccccc3)CC2)ccc1Cl
→ ., ., ., 0.72, 2.1, -2, ., 3.0, .
> O=C(CN1CCN(c2ccccc2)CC1)Nc1scc2c1c(=O)oc1ccccc12
→ 17, 3, 0.6, 0.63, 1.0, -7, i, 2.0, 4
> COc1cc(/C=N/NC(=O)c2cccnc2)cc2c1OCO2
→ 16, 9, 0.3, ., 1.6, 1, i, ., 13
> COc1ccc(OCC(=O)N/N=C(/C)Cc2ccccc2)cc1
→ 13, 7, -0.7, ., -2.3, -9, i, ., 17

Part of the list above in order of number of heavy atoms, falling:
Values in the order: Ecoli rRNA inh, Ecoli rRNA inh OD600, Ecoli rRNA inh RFP, Ecoli growth, HNF4A DNA FP, Beta2AR agonist, FGF22 binding, UCH37 DUB inh, ALR H2O2 inh
> COc1cc(OC)cc(N(C(=O)c2snc(C(N)=O)c2N)C(C(=O)NCC2CCCO2)c2ccc(C)o2)c1 (stereo unspecified)
→ -1, 0, 1.5, ., 1.6, 4, i, ., -1
> O=C(NCc1ccccn1)c1cc(S(=O)(=O)N2CCN(c3ccccc3)CC2)ccc1Cl
→ ., ., ., 0.72, 2.1, -2, ., 3.0, .
> C[C@@H]1CN([C@@H](C)CO)C(=O)c2cc(Br)cnc2O[C@H]1CN(C)C(=O)c1ccccc1F
→ 6&-4, 9&-4, 2.5&-0.7, ., -2.2, ., i, ., .
> O=C(CN1CCN(c2ccccc2)CC1)Nc1scc2c1c(=O)oc1ccccc12
→ 17, 3, 0.6, 0.63, 1.0, -7, i, 2.0, 4
> CCN(CC)Cc1c(C(=O)N/N=C(\C)c2ccncc2)nnn1-c1nonc1N
→ 3, 8, -2.1, ., -0.1, 9, i, ., -5
> COc1ccccc1NC(=O)C(C)OC(=O)C1CC(=O)N(Cc2ccco2)C1 (stereo unspecified)
→ 11, 11, -1.6, ., -2.0, ., i, ., .
> S=c1[nH]nc(-c2cc(-c3ccccc3)n[nH]2)n1/N=C/c1ccccc1
→ -15*, 2.6*, 2.9*, ., -1.8, -2, i, ., 43
> COc1ccc(OCC(=O)N/N=C(/C)Cc2ccccc2)cc1
→ 13, 7, -0.7, ., -2.3, -9, i, ., 17
> CCC(c1nnnn1C1CCCC1)N1CCC(C(N)=O)CC1 (stereo unspecified)
→ 36, 20, 1.9, 0.73, 0.4, -2, i, 2.9, 9
> COC(=O)c1ccc(CC(=O)c2ccc(O)cc2O)o1
→ ., ., ., 0.73, 6.0, 7, ., 2.1, -4
> CC(C)CN(CC(C)C)C(=S)NC1CCCCC1
→ 7, 0, -12, 0.71, 3.4, 3, i, -11, -3
> CCOC(=O)CNS(=O)(=O)c1ccc(C)cc1
→ 10, 4, 11, 0.7, -2.5, 4, i, 1.9, -1

Additional compounds.
Values in the order: Ecoli rRNA inh, Ecoli rRNA inh OD600, Ecoli rRNA inh RFP, Ecoli growth, HNF4A DNA FP, Beta2AR agonist, FGF22 binding, UCH37 DUB inh, ALR H2O2 inh
> Cc1ccc(S(=O)(=O)N2CN(Cc3ccco3)c3nc4ccccc4nc32)cc1C
→ 12, -6, 50, 0.75, 3.7, 12, ., -3.6, -5
> COc1cccc(-c2n[nH]c(=S)n2Cc2ccco2)c1
→ 2, 6, -6.7, 0.64, -1.4, -3, i, 2.9, -4
> COc1ccc([N+](=O)[O-])cc1NS(=O)(=O)c1cc(C(=O)O)ccc1OC
→ 5, 7, 0.6, 0.69, 3.2, 3, i, 4.6, -17
> Cc1ccc2nc(NC(=O)CSCC(=O)OCC(=O)c3ccc(Br)cc3)sc2c1
→ ., ., ., ., -1.0, 4, ., ., 0
> CC(=O)Nc1c(-c2ccc(C)cc2)nc2ccc(Cl)cn12
→ 10, 12, -0.8, ., -2.3, ., i, ., .
> CCC1Cc2[nH]c(=S)[nH]c(=O)c2C(c2ccc(F)cc2)O1 (stereo unspecified)
→ 3, 1, -4.0, ., 1.6, ., i, ., .
> COc1ccc(CN2C(=O)C(CC(=O)NCCc3ccccn3)CC(C(=O)N(C(C)C)C(C)C)=C2C)cc1 (stereo unspecified)
→ 3, -4, 0.9, ., -2.8, ., i, ., .
> CN(C)C(=O)c1cn(-c2ccccc2)nc1-c1cc2ccccc2oc1=O
→ 11, 5, -0.3, 0.67, 0.9, -7, ., -25, 9
> CC(=O)Nc1ccc(/C=C(\C#N)C(=O)NCc2ccccc2)cc1
→ 5, 5, 5.7, 0.73, -5.0, -7, i, 3.4, 2
> O=C(Nc1ccc(Nc2ccncc2)cc1)c1ccc(Nc2ccnc3ccc([N+](=O)[O-])cc23)cc1
→ 2, 18, -2.0, 0.64, 204, 69*, i, 1.8, .

Going on with the list:
Values in the order: Ecoli rRNA inh, Ecoli rRNA inh OD600, Ecoli rRNA inh RFP, Ecoli growth, HNF4A DNA FP, Beta2AR agonist, FGF22 binding, UCH37 DUB inh, ALR H2O2 inh
> C/C(=N\NC(=O)Cc1ccc(F)cc1)c1ccc(O)cc1
→ 6, 2, 0.7, ., -0.9, -2, i, ., 99*
> COc1cc(CNC(=O)c2cc3ccccc3oc2=O)cc(OC)c1OC
→ -7, -5, -1.6, 0.72, 4.5, -10, i, 4.9, 0
> COc1ccccc1C(=O)C1CCCN(Cc2cccc(OCCO)c2)C1 (stereo unspecified)
→ 1, 16, 4.2, 0.71, 0.4, -1, i, 0.0, -5
> CCCCc1ccc(Nc2nc(CCC)cc(=O)[nH]2)cc1
→ ., ., ., 0.77, -1.4, 0, ., 0.5, -5
> O=C(CCNC(=O)Cn1ccc2ccccc2c1=O)NCCCN1CCOCC1
→ 12, 7, 2.0, 0.7, 4.1, -3, i, -3.2, .
> N=c1c2c3c(sc2ncn1CCN1CCOCC1)CCCC3
→ ., ., ., 0.69, 1.3, -17, ., 1.4, -7
> COc1c(-c2ccccc2)oc2c(ccc3occc32)c1=O
→ 4, -8, -2.4, 0.64, -0.8, 0, i, -3.4, .
> C[C@H](CO)N1C[C@H](C)[C@H](CN(C)C(=O)Nc2ccc(C(F)(F)F)cc2)Oc2c(NC(=O)c3ccncc3)cccc2C1=O
→ -8&-13, -3&-12, 1.8&1.5, 0.74, 5.7, 0, i, 8.5, -2

These rows are one share of the data; the hit share may differ from the screen's.
